Cruzain inh noDet = cruzain (T. cruzi) inhibition without detergent; P25779; 200,000 compounds, 2.3% hits; purified cruzain, Z-FR-AMC fluorescence, no detergent; Potency, µM, without a hit: max response, negative = inhibition, usual class: inhibitors; AID 1476; active = well fitted curve in the direction sought with a large enough effect; inconclusive = small, poorly fitted or top-dose-only effect, or another doubt; inactive = no such curve, though single readings can be large; an effect the other way counts as inactive or inconclusive;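 also: plate controls were enzyme without inhibitor for no effect and buffer without enzyme for full effect; nearly all actives have a fitted effect of over 40% in size; top concentration of the series not given in the record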
Target sequence (P25779 123-467 limits assumed): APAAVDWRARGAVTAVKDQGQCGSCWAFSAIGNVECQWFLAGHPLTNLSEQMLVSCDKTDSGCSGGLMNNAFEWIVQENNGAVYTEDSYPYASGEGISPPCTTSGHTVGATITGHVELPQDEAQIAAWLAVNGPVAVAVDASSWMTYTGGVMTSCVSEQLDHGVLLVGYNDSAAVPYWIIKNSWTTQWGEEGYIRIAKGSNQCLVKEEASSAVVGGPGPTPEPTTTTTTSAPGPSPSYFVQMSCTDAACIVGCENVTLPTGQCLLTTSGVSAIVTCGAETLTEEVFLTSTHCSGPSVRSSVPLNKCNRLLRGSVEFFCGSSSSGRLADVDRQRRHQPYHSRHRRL
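Detergent-free condition (0.00005% Triton X-100) in acetate buffer pH 5.5 with DTT. 1.5 nM enzyme and compound were pre-mixed 15 min, then 2 uM Z-FR-AMC substrate added; reaction progress from fluorescence change between first and third reads (60 s).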
RE007 growth inh = less growth of the S. pombe RE007 Vpr strain; 360,000 compounds, 0.21% hits; S. pombe RE007 Vpr strain, BacTiter-Glo ATP luminescence, 24 h; control for the full effect not named in the record; Potency, µM (top dose mostly 92.2 µM), without a hit: top-dose activity change, negative = less growth; AID 651644; active = well fitted falling curve with a large enough effect; inconclusive = small, poorly fitted or top-dose-only effect; inactive = no such curve, though single readings can be large or run the other way;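 also: % is scaled to controls: 0 for no effect and ±100 for the full control effect; nearly all actives have a fitted effect of over 50% in size; the assay follows cell death caused by Vpr and the record does not say whether a fall means rescue or toxicity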
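Fission yeast strain RE007, carrying one chromosomally integrated HIV-1 vpr copy, was seeded at OD 0.01 in PMG+AL medium with 23 nL pinned compound. After 24 h at 30 °C and 99% humidity, viability was read by BacTiter-Glo luminescence.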
Marburg entry inh = Marburg virus entry inhibition; Marburg virus pseudotyped entry inhibition, cell reporter; control for the full effect not named in the record; about a third of the inactives were read at about 46 µM; Potency, µM (series often up to 37.8 µM), for the others: at the highest dose activity change, negative = inhibition, actives largely listed as inhibitors; 300,000 compounds, 1.8% hits; active = well fitted inhibition curve with a large enough effect; inconclusive = small, poorly fitted or top-dose-only effect, or effect the other way; inactive = flat fitted curve, though single readings scatter; tested in HEK293 cells; about a fifth of its hits are not listed in these tables; also: % is scaled to controls: 0 for no effect and ±100 for the full control effect; luciferase read-out
SARS PLpro yeast = inhibitors of SARS-CoV papain-like protease in yeast | 330,000 compounds, 0.19% hits | Potency, µM (titrated, usually from 32.9 µM), for inactives: at the top dose activity, positive = growth rescue | S. cerevisiae expressing SARS-CoV PLpro, growth rescue; control for the full effect not named in the record; also: 0% is about no effect; nearly all actives have a fitted effect of over 55% in size; growth read by luminescence after 48 h
Lassa entry inh = blocks Lassa virus binding to or entry into cells. Lassa virus pseudotype entry inhibition, cell reporter; control for the full effect not named in the record. Potency, µM (highest dose often 37.9 µM), without a hit: at the highest dose activity change, negative = inhibition, hits mostly inhibitors. 300,000 compounds, 1.2% hits. AID 540256; active means well fitted inhibition curve with a large enough effect; inconclusive means small, poorly fitted or top-dose-only effect, or effect the other way; inactive means flat fitted curve, though single readings scatter; tested in HEK293 cells; also: % is scaled to controls: 0 for no effect and ±100 for the full control effect; nearly all actives have a fitted effect of over 50% in size; luciferase read-out
NS1 function inh = blocks influenza NS1 protein function. S. cerevisiae slowed by influenza A NS1, growth recovery by OD600. AID 2326. Potency, µM (titrated, usually from 46.1 µM), without a hit: top-dose activity, positive = more growth. 270,000 compounds, 0.4% hits; also: actives are rising curves; nearly all actives have a fitted effect of over 50% in size
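S. cerevisiae expressing influenza A NS1, grown in glucose, washed, then diluted 1:100 into pH 6.0 -URA galactose medium with 23 nl compound. Growth recovery read as OD600; NS1-free strain serves as control.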
Cruzain inh Det = cruzain (T. cruzi) inhibition with detergent; P25779; purified cruzain, Z-FR-AMC fluorescence, 0.01% Triton; Potency, µM, inactives show max response, negative = inhibition, usual class: inhibitors; 200,000 compounds, 0.43% hits; AID 1478; active = well fitted curve in the direction sought with a large enough effect; inconclusive = small, poorly fitted or top-dose-only effect, or another doubt; inactive = no such curve, though single readings can be large; an effect the other way counts as inactive or inconclusive;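 also: plate controls were neutral wells for no effect and buffer without enzyme for full effect; nearly all actives have a fitted effect of over 40% in size; top concentration of the series not given in the record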
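Detergent-containing arm of a paired screen for aggregation-based inhibition: 0.01% Triton X-100 present. Cruzain at 1.5 nM cleaved 2 uM Z-FR-AMC at pH 5.5 with 5 mM DTT; AMC fluorescence gain over 60 s measured activity.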
2A StopGo = FMDV 2A StopGo reporter, luciferase signal; human cells with a luciferase reporter of 2A StopGo recoding; control for the full effect not named in the record; Potency, µM (top dose mostly 57.9 µM), inactives show top-dose signal change, negative = less light; 410,000 compounds, 1.2% hits; AID 1159524; active = well fitted falling curve with a large enough effect; inconclusive = small, poorly fitted or top-dose-only effect; inactive = no such curve, though single readings can be large or run the other way; tested in HEK293T cells; also: % is scaled to controls: 0 for no effect and ±100 for the full control effect; nearly all actives have a fitted effect of over 45% in size; luciferase light after 4 h
The depositor's hits bear a star; ? = inconclusive; nt = no result given; & = joins results of further samples; [ ] = remark or other dose. Unless noted, calls follow the shape of the dose curve; as a rule, active means well fitted rising curve with a large enough effect; inconclusive means small, poorly fitted or top-dose-only effect; inactive means no such curve, though single readings can be large or run the other way. Potency is read from the fitted curve at half-maximal effect.

structure	Cruzain inh noDet	RE007 growth inh	Marburg entry inh	SARS PLpro yeast	Lassa entry inh	NS1 function inh	Cruzain inh Det	2A StopGo
Fc1ccc(CN2CCCN(C(=S)Nc3ccc(F)cc3)CC2)cc1	nt	-19%	-1%[46.1 µM]	-1%	0%	-6%	nt	12%
CCOC(=O)c1c(C)n(CC(COC(C)=O)OC(C)=O)c2ccc(OC(C)=O)cc12 (stereo not given)	?	-6%	-2%	3%	10%	-10%	-3.1%	21%
O=C(C1=C[C@@H](c2csc3ccccc23)C[C@@H](OCc2ccc(CO)cc2)O1)N1CCN(Cc2ccccc2)CC1	nt	-3%	nt	-3%	nt	2%	nt	-27%
CC(=O)N=c1sccn1CC(=O)c1ccc([N+](=O)[O-])cc1	11%	-1%	-1%	1%	12%	9%	0.9%	2%
COc1ccc(C(=O)Nc2cc3c(cc2C(=O)c2ccccc2Cl)OCCO3)cc1	-12%	nt	-1%[46.1 µM]	nt	13%[46.1 µM]	nt	0.7%	-23%
Cc1nnc(SCc2nnc(-c3ccccc3)o2)n(N)c1=O	-14%	11%	2%	0%	-6%	-3%	-5.6%	14%
Fc1ccc(Br)cc1C1C=C(c2cccnc2)Nc2ncnn21 (stereo not given)	-15%	-4%	nt	0%	nt	-126%	1.4%	-13%
COc1cc(Br)c(C2CC(=O)Nc3cc4c(cc32)OCCO4)cc1OC (stereo not given)	8%	nt	?	nt	-27%[46.1 µM]	nt	-7.8%	16%
COC(=O)c1cn(CC(=O)Nc2ccccc2C)c2ccccc12	nt	-11%	nt	-3%	nt	-2%	nt	-9%
COc1ccc(OCC(O)CNC(=O)c2c(-c3ccccc3)noc2C)cc1 (stereo not given)	nt	2%	nt	1%	nt	-1%	nt	-18%
COC(=O)c1ccccc1NS(=O)(=O)c1cc2c3c(c1)CC(=O)N3CCC2	19%	nt	nt	nt	-11%[46.1 µM]	nt	-1.3%	-27%
COc1ccccc1NC(=O)CCC(=O)Nc1cc(OC)c(NC(=O)c2cccs2)cc1OC	nt	-11%	?	0%	-22%	-3%	nt	-18%
CCn1c(N2CCN(C(=S)NCC(C)C)CC2)nc2ccccc21	8%	-9%	-33%	-2%	-16%	-16%	2.1%	nt
Cn1c(CNC(=O)CNC(=O)c2ccc(C(C)(C)C)cc2)cc(=O)n(C)c1=O	nt	2%	nt	-9%	nt	-6%	nt	6%
CN1C(=O)c2oc3ccccc3c(=O)c2C1c1ccccn1 (stereo not given)	-5%	-1%	4%[46.1 µM]	-2%	2%	7%	2.6%	-8%
Cc1ccc(CSc2nnc(SCC(=O)N/N=C/c3c(C)nn(-c4ccccc4)c3C)s2)cc1	?	-8%	?	-4%	8.2µM*	?	0.1%	0%
COC(=O)Cc1ccc(NC(=S)NCc2ccc(S(N)(=O)=O)cc2)cc1	nt	-13%	?	-1%	3%[46.1 µM]	3%	nt	6%
CCCCCn1c(=O)[nH]c2cc(C(=O)N3CCN(c4ccccc4)CC3)ccc2c1=O	4%	nt	27%[46.1 µM]	nt	9%[46.1 µM]	nt	-1.5%	?
CC(=O)N1CCc2cc(S(=O)(=O)C(C)CC(=O)Nc3ccc(Br)c(C)c3)ccc21 (stereo not given)	-5%	nt	nt	nt	17%[46.1 µM]	nt	-6.0%	-20%
N#Cc1sc2nc(N3CCCCC3)c3c(c2c1N)CCCC3	-19%	?	?	-24%	?	1%	-10%	?
O=C(OCC(=O)c1ccccc1)C1=NN(c2ccccc2)C(=O)CC1	nt	11%	4%	-2%	0%	nt	nt	5%
CCCCCNC(=O)C1CC(=O)OC12CCCCC2 (stereo not given)	nt	3%	?	0%	4%	6%	nt	-20%
CCOC(=O)C(C)C(C)=O (stereo not given)	-1%	-5%	nt	-1%	nt	nt	1.8%	-16%
CCN(C(=O)CSc1nnc(-c2ccc(OC)cc2)n1C(C)C)C1CCS(=O)(=O)C1 (stereo not given)	nt	7%	-9%	2%	-2%	nt	nt	-3%
CCn1ccc(C(=O)Nc2ccc(N(C)C(C)=O)cc2)n1	-7%	3%	?	0%	22%	-1%	-1.3%	49%[activator]
COc1ccc(N(CC(=O)NCc2ccccc2)S(C)(=O)=O)cc1	5%	11%	3%	2%	6%	6%	8.0%	6%
CNc1nc(N)c(C(=O)C(C)(C)C)s1	4%	2%	22%	-7%	4%	3%	-1.9%	nt
COc1ccc2c(c1)CCC1C2CCC2(C)C(O)C(=O)CC12 (stereo not given)	nt	15%	5%	nt	-7%	nt	nt	-13%
Cc1ccc(-c2noc(CN3C(C)CCCC3C)n2)cc1 (stereo not given)	-16%	-15%	nt	-3%	nt	-8%	3.3%	14%
COc1ccc([N+](=O)[O-])cc1NC(=O)COC(=O)c1ccccc1C(=O)c1ccccc1	?	-4%	?	-4%	?	20%	-5.6%	-26%
Cc1ccc(N=C2NC(=O)/C(=C/c3cccnc3)S2)cc1C	nt	17%	nt	-1%	nt	0%	nt	-27%
CCOc1ccc(CSC(=N)N)cc1	-1%	-14%	?	24%	-9%	9%	-1.6%	-15%
CCC(=O)Nc1nnc(-c2cccs2)s1	nt	-3%	?	1%	-16%	-7%	nt	57%[activator]
CCc1cccc(Nc2c([N+](=O)[O-])cc(C(=O)N3CC(=O)Nc4ccccc43)cc2[N+](=O)[O-])c1	-9%	2%	-38%	18%	?	22%	-7.1%	?
CCCN=Cc1c(CCC)[nH]n(-c2nc3ccccc3s2)c1=O	-3%	-3%	2%	12%	15%	-11%	-2.3%	nt
Cn1c(SCC(=O)NC2CCCC2)nnc1-c1ccc(S(=O)(=O)N2CCOCC2)cc1	-8%	-14%	4%&10%	1%	6%	-1%	7.0%	-21%
Cc1ccc(N(CC(O)CN2CCCCC2)S(=O)(=O)c2ccc(C)cc2)cc1 (stereo not given)	nt	0%	?	-3%	13%	?	nt	-12%
O=C(NNC(=O)c1cc(-c2ccccc2)n(-c2ccccc2)n1)c1cccc([N+](=O)[O-])c1	?	0%	-5%	9%	5%	27%	-5.5%	-10%
COCC(=O)Nc1nc(-c2ccccc2)c(C)s1	-4%	-16%	17%	-1%	-2%	-17%	4.1%	-10%
CC1=NN(C(=O)c2ccco2)C(O)(c2ccccc2)C1 (stereo not given)	nt	13%	6%[46.1 µM]	-1%	?	0%	nt	-4%
O=C(CN(Cc1cccs1)C(=O)CNS(=O)(=O)c1ccccc1)NCc1ccco1	-7%	-17%	17%	-4%	21%	-10%	-0.4%	-11%
CCOn1c(=O)c(-c2cccc(Br)c2)[n+]([O-])c2ccccc21	nt	-10%	15%[46.1 µM]	-3%	13%[46.1 µM]	8%	nt	-16%
COC(=O)c1ccccc1NC(=O)CSc1nc(=O)cc(N)n1-c1ccccc1	-1%	nt	-5%[46.1 µM]	nt	12%[46.1 µM]	nt	25µM*	4%
Cc1ccc(S(=O)(=O)/N=C2/NC(=O)/C(=C/c3cc([N+](=O)[O-])ccc3O)S2)cc1	nt	13%	1%[46.1 µM]	4%	16%[46.1 µM]	?	nt	7%
CC(=O)Oc1ccc(N(C(C)=O)S(=O)(=O)c2ccc(C)c([N+](=O)[O-])c2)cc1	1%	2%	-1%	-11%	-2%	0%	0.1%	11%
O=C(CNC(=O)c1ccccc1F)OCCOc1cccc(Cl)c1	nt	-24%	17%[46.1 µM]	-1%	23%	nt	nt	-1%
O=C(NCC1CCCO1)c1cccc(S(=O)(=O)N(Cc2ccccc2)c2ccccc2)c1 (stereo not given)	nt	17%	-4%	2%	?	nt	nt	9%
CCOC(=O)c1c(C)oc(C)c(C(=O)OCC)c1=O	nt	8%	19%[46.1 µM]	-1%	0%	3%	nt	-5%
Cn1c(NCCN2CCCCC2)cc(=O)n(C)c1=O	13%	0%	-22%&-22%	8%	-3%	-8%	3.6%	-14%
COc1ccc(C(NC(=O)C(C)C)c2ccc3cccnc3c2O)cc1 (stereo not given)	nt	?	?	?	2.5µM*	-76%	nt	?
Cc1cc(=O)oc2cc(OCC(=O)Nc3c(Cl)cccc3C(F)(F)F)ccc12	nt	-13%	?	-11%	?	-1%	nt	-20%
CS(=O)(=O)N(CC(=O)N1CCCC1)c1ccc(Cl)cc1Cl	nt	-2%	24%	-1%	1%	1%	nt	-6%
COc1ccc(CCC(=O)NCC(=O)OCc2ccccc2)cc1	nt	-12%	nt	1%	nt	6%	nt	-20%
COc1ccc(C(CC(=O)N2CCCCC2)c2c(O)cc(OC)cc2OC)cc1 (stereo not given)	nt	8%	nt	1%	nt	-6%	nt	-15%
c1ccc2c(c1)CSc1ccccc1N2	nt	?	?	nt	1%	nt	nt	12%
Cc1ccc(CSCc2ccc(C(=O)NCCCN3CCOCC3)o2)cc1	nt	1%	13%[46.1 µM]	6%	?	nt	nt	-13%

Other results
structure	Cruzain inh noDet	RE007 growth inh	Marburg entry inh	SARS PLpro yeast	Lassa entry inh	NS1 function inh	Cruzain inh Det	2A StopGo
COc1cc(C2CC(=O)N3CN(Cc4ccco4)CSC3=C2C#N)ccc1OCc1ccccc1 (stereo not given)	2%	6%	-8%	0%	nt	-13%	-18%	0%
CC(c1ccccn1)N(C)C(=O)c1ccc2nc(Cc3cccc(Cl)c3)oc2c1 (stereo not given)	nt	-1%	10%[46.1 µM]	-2%	?	-53%	nt	43%[activator]
CCNC(=S)NNC(=O)c1ccccn1	16%	4%	?	?	?	7%	3.3%	-10%
CCOC(=O)c1c(C)[nH]c(C)c1C(=O)COC(=O)/C=C/c1ccco1	nt	17%	18%	-8%	-10%	nt	nt	-19%
Cc1nc2ccn(Cc3cccs3)c(=O)c2cc1C(=O)NCc1ccc(Br)cc1	?	nt	nt	nt	-33%[46.1 µM]	nt	-5.7%	3%
CC1CCCCC1NC(=O)CSc1nnnn1-c1ccccc1 (stereo not given)	-7%	-8%	-2%	1%	7%	0%	1.0%	-8%
O=C(Cn1c(=O)[nH]c2ccsc2c1=O)NC1CCCCCC1	0%	-6%	4%	-10%	-2%	2%	0.8%	-5%

Screening data from PubChem BioAssay.

Not a hit list; overall some 4.8% were active at least once.
